VDR inhibitor: blocks the human vitamin D receptor; P11473; VDR-SRC2-3 peptide fluorescence polarization, 2 h; Potency, µM, for inactives: max response, negative = inhibition, usual class: inhibitors; 0.93% of 400,000 active; AID 504847; active = well fitted inhibition curve with a large enough effect; inconclusive = small, poorly fitted or top-dose-only effect, or another doubt; inactive = no such curve, though single readings can be large or run the other way; also: series mostly up to about 120 µM
Target sequence (P11473 whole entry, looked up): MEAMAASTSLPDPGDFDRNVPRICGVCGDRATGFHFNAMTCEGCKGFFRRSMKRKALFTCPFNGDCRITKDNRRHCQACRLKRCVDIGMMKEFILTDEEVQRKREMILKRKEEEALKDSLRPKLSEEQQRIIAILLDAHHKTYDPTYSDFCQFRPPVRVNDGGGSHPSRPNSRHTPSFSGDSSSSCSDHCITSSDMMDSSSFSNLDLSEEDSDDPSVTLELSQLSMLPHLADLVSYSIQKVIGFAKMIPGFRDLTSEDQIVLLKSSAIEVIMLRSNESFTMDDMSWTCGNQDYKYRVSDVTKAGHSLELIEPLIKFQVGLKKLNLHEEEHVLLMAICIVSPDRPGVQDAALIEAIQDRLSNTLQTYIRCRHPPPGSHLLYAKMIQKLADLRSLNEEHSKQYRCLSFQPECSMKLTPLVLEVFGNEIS
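Measured by FP: displacement of SRC2-3 coactivator peptide from VDR by library compounds, following a two-hour ambient incubation.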
* hit, by the source's call; ? = inconclusive; & = joins results of further samples. % is scaled to controls: 0 for no effect and ±100 for the full control effect; potency is read from the fitted curve at half-maximal effect. An excerpt; rates above refer to the full screens.

SMILES	VDR inhibitor
O=c1c2cc3c(cc2nc2sc(Nc4cccc([N+](=O)[O-])c4)nn12)OCO3	0%
CC1Cc2ccccc2N1C(=O)Cn1cnc2ccccc2c1=O (centres undefined)	6%
COc1ccccc1CN(C)C(=O)c1cc(-c2cc(OC)c(OC)c(OC)c2)nc2ccccc12	-11%
CCn1c(SCC(=O)N2c3ccccc3CCc3ccccc32)nnc1-c1ccc(OC)cc1	-7%
Cc1nn2c(C)c(C(=O)Nc3ccccc3)cnc2c1-c1ccccc1	-4%
CC(CC(=O)N1CCN(c2ccccc2)CC1)c1ccccc1 (centres undefined)	-15%
Cc1ccc(-c2nnc(SCC(=O)Nc3cccc(C(=O)N4CCOCC4)c3)n2C)cc1	-3%
Cc1ccc([N+](=O)[O-])cc1NC(=S)NCCc1ccccc1	16%
Cc1ccc(C(=O)N/C(=C/c2ccco2)C(=O)N2CCCCCC2)cc1	-25%
CC(O)c1cccc2cc(C(O)CNC(C)(C)C)oc12 (centres undefined)	7%
O=C(NC1=NC2CCCCC2N1)c1ccccc1 (centres undefined)	-8%
Cc1ccc(S(=O)(=O)c2nnn3c2nc(N2CCC(C(N)=O)CC2)c2ccccc23)cc1C	5%
COCCn1c(C)nc2oc3ccc(Br)cc3c(=O)c2c1=O	14%
Nn1cnnc1N/N=C/c1ccc(F)cc1	-26%
CN1CCN(C(=O)C2=C[C@@H](c3ccc(C(F)(F)F)cc3)C[C@@H](OCc3ccc(CO)cc3)O2)CC1	-7%
COc1ccc(NC(=O)Cn2c(=O)n(-c3ccc(OC)cc3OC)c(=O)c3c(C)c(C)sc32)cc1	-11%
CC(C)=CC(=O)OCc1csc(CC(=O)Nc2ccccc2C)n1	13%
Cc1cc(C(F)(F)F)n(-c2nc(C(=O)NNS(=O)(=O)c3ccccc3[N+](=O)[O-])cs2)n1	-2%
O=C(OCc1ccc2c(c1)OCO2)c1ccc(S(=O)(=O)N2CCCCC2)cc1	16%
O=C(COC(=O)CCCSc1nc2ccccc2[nH]1)Nc1ccc(Cl)cc1	-3%
Cc1cccc(C)c1OCC(O)Cn1c2ccccc2c2ccccc21 (centres undefined)	12%
CC(C)CCN1CCN(Cc2ccsc2)CC1CCO (centres undefined)	-14%
COc1ccc(/C=N/NC(=O)c2ccncc2)cc1CSc1nc2ccccc2s1	-1%
COc1ccccc1S(=O)(=O)Cc1ccc(C(=O)NCc2ccccc2)o1	-25%
CCOc1cc(C(=O)NC(C)CC)cc(OCC)c1OCC (centres undefined)	17%
Cc1ccc(CNC(=O)C(=O)NCC(c2cccs2)S(=O)(=O)c2ccc(C)cc2)cc1 (centres undefined)	-3%
CS(=O)(=O)N(C(=O)NC(=O)NC12CC3CC(CC(C3)C1)C2)C1CCCCC1	-7%
COc1cccc(CNC(=O)CCC2CCCN(C3CCOCC3)C2)c1 (centres undefined)	-2%
CC(C)CC(c1nnnn1CC1CCCO1)N1CCN(c2cccc(Cl)c2)CC1 (centres undefined)	-7%
O=C(c1cccc(Oc2ccccc2)c1)N1CCN(c2ccccn2)CC1	-2%
CCn1c(C(=O)NCc2ccccc2C)cc2oc3ccccc3c21	-5%
CC(C)c1ccc(N=C2NN=C(c3cccs3)CS2)cc1	1%
COc1ccc(CNc2ncncc2-c2cccc(NS(C)(=O)=O)c2)c(OC)c1	-10%
COc1ccccc1N1CCN(S(=O)(=O)CCNC(=O)C2CC(=O)N(c3ccccc3)C2)CC1 (centres undefined)	-12%&12%
CC1CCN(C(=O)CCNS(=O)(=O)c2ccccc2)CC1	0%
C=CCn1cc(CN2CCC(C(=O)Nc3ccc(Oc4cccnc4)cc3)CC2)c(C)n1	6%
CCOC(=O)C(C)Sc1nc(C2CC2)cc(C(F)(F)F)c1C#N (centres undefined)	6%
CC(C)N(Cc1ccccc1)C(=O)COC(=O)c1ccc2ncsc2c1	-7%
CN(C)CCSc1nc(N)c2c3c(sc2n1)CN(C)CC3	1%
CCc1ccccc1NC(=O)Cn1c(=O)n(Cc2ccc(OC)cc2)c(=O)c2oc3ccccc3c21	6%
Cc1ccc2nc(-c3cccs3)oc(=O)c2c1	-8%
CCC(=O)NC(=S)Nc1ccc(NC(=O)c2ccc(OC)cc2)cc1	1%
S=C(NCC1CCCO1)N1CCN(Cc2ccccc2Cl)CC1 (centres undefined)	11%
Cc1ccc(NC2CC(=O)N(c3cccc([N+](=O)[O-])c3)C2=O)cc1 (centres undefined)	-4%
COc1ccc(N2CCN(C(=S)NCc3ccccc3)CC2)cc1	6%
COc1ccc(-c2csc3nc(-c4cccnc4)nc(N4CCC(C(N)=O)CC4)c23)cc1OC	0%
CCCCNC(=O)CC1S/C(=N/N=C/c2ccc(OC)cc2)NC1=O (centres undefined)	-7%
Cc1ccccc1CSc1nc2c([nH]c3ccccc32)c(=O)n1-c1ccccc1	3%
CC1(C(=O)OCC(=O)Nc2ccc(Cl)cn2)CC1(Cl)Cl (centres undefined)	-15%
CCOC(=O)c1c(NC(=O)COC(=O)Cn2cnc3ccccc32)sc(C)c1C	7%
COc1ccc(/C=C(/C#N)c2nc(-c3cc4ccccc4oc3=O)cs2)cc1	6%
Oc1ccccc1N1CCN(c2nc(-c3cccs3)nc3ccccc23)CC1	4%
CCOC(=O)CCC(=O)Nc1cccc([N+](=O)[O-])c1	-13%
COC(=O)Cn1cc(/C=C(/C#N)C(=O)N2CCOCC2)c2ccccc21	0%
CCN1C(=O)/C(=C2\SC(N3CCOCC3)=NC2=O)c2ccccc21	-7%
O=C(CC1SC(=O)N(Cc2ccc(Cl)cc2)C1=O)Nc1nccs1 (centres undefined)	-5%
O=C1[C@H](Cc2ccccc2)NCC=CC[C@H](c2ccc(Cl)cc2)N1Cc1ccccc1	-5%
CN(C(Cc1ccc(OS(=O)(=O)c2cccc3cnccc23)cc1)C(=O)N1CCN(c2ccccc2)CC1)S(=O)(=O)c1cccc2cnccc12 (centres undefined)	?
COc1nc(N)c(C#N)c(-c2ccc(N(C)CCC#N)cc2)c1C#N	-13%
O=C(CSc1nnc(-c2cccc(S(=O)(=O)N3CCOCC3)c2)n1C1CCCCCC1)NCc1ccccc1	2%

Later entries
SMILES	VDR inhibitor
Cc1ccc(C)c(Cn2c3ccccc3c3cnn(CC(=O)NCCCN4CCOCC4)c(=O)c32)c1	-6%
CC1CN(C)C(C)C/C1=N/Oc1ccccc1[N+](=O)[O-] (centres undefined)	3%
CCc1ccccc1NC(c1nnc(-c2cccc(F)c2)o1)c1ccc(F)cc1Cl (centres undefined)	-1%
O=C(c1ccccn1)C1CCCN(Cc2nc(Cc3cccc(F)c3)no2)C1 (centres undefined)	1%
OCC1(CCOc2ccccc2)CCN(C2Cc3ccccc3C2)CC1	-6%
CCOC(=O)C1=C(c2ccccc2)Nc2c(c(=O)n(C)c(=O)n2C)C1c1ccc(O)c(OC)c1 (centres undefined)	9%
Cc1ccccc1OCCCn1c(-c2ccc(Cl)cc2)nc2ccccc2c1=O	-14%
COc1cc(OC)cc(-c2c(-c3cccs3)c3cc(-c4ccc(SC)cc4)ccc3n2C)c1	1%
Cc1ccc(N2C(N)=NC(N)=NC2(C)C)c(C)c1	14%
COC1=CC2(O)CCCC2=CC1=O (centres undefined)	-3%
CN(C)C(=O)c1ccc(-c2nc(NC3CCNCC3)c3ccccc3n2)cc1	-4%
Cn1c(CNC(=O)Cc2ccc3c(c2)OCO3)nnc1SCc1ccccc1	-3%

Among those listed so far, 14 contain a halogen:
SMILES	VDR inhibitor
COCCn1c(C)nc2oc3ccc(Br)cc3c(=O)c2c1=O	14%
Nn1cnnc1N/N=C/c1ccc(F)cc1	-26%
CN1CCN(C(=O)C2=C[C@@H](c3ccc(C(F)(F)F)cc3)C[C@@H](OCc3ccc(CO)cc3)O2)CC1	-7%
Cc1cc(C(F)(F)F)n(-c2nc(C(=O)NNS(=O)(=O)c3ccccc3[N+](=O)[O-])cs2)n1	-2%
O=C(COC(=O)CCCSc1nc2ccccc2[nH]1)Nc1ccc(Cl)cc1	-3%
CC(C)CC(c1nnnn1CC1CCCO1)N1CCN(c2cccc(Cl)c2)CC1 (centres undefined)	-7%
CCOC(=O)C(C)Sc1nc(C2CC2)cc(C(F)(F)F)c1C#N (centres undefined)	6%
S=C(NCC1CCCO1)N1CCN(Cc2ccccc2Cl)CC1 (centres undefined)	11%
CC1(C(=O)OCC(=O)Nc2ccc(Cl)cn2)CC1(Cl)Cl (centres undefined)	-15%
O=C(CC1SC(=O)N(Cc2ccc(Cl)cc2)C1=O)Nc1nccs1 (centres undefined)	-5%
O=C1[C@H](Cc2ccccc2)NCC=CC[C@H](c2ccc(Cl)cc2)N1Cc1ccccc1	-5%
CCc1ccccc1NC(c1nnc(-c2cccc(F)c2)o1)c1ccc(F)cc1Cl (centres undefined)	-1%
O=C(c1ccccn1)C1CCCN(Cc2nc(Cc3cccc(F)c3)no2)C1 (centres undefined)	1%
Cc1ccccc1OCCCn1c(-c2ccc(Cl)cc2)nc2ccccc2c1=O	-14%

(cont.)
SMILES	VDR inhibitor
O=C(COc1ccccc1[N+](=O)[O-])Nc1ccc(CN2CCOCC2)cc1	-6%
Cc1ccc(NC(=O)C2CCN(C(=O)OC(C)(C)C)CC2)cc1S(=O)(=O)N1CCCCC1	1%
COCc1cc(=O)[nH]c(SC)n1	-13%
CCN(CC)c1ccc(NC(=O)Cn2nc(C)n3cccc3c2=O)c(C)c1	13%
Cc1ccccc1Nc1cc(C(=O)NCCCN2CCN(c3cccc(Cl)c3)CC2)c2ccccc2n1	3%
Cc1oc(-c2cccs2)nc1CS(=O)CC(=O)NCc1ccc2c(c1)OCO2 (centres undefined)	-7%
O=C(CNCc1ccccc1)Nc1ccccc1-c1ccccc1	-3%
CC(C)c1cc(CNC(=O)C2CCC(=O)N(CCc3ccc(Cl)cc3)C2)on1 (centres undefined)	-14%
O=C(N/C=N/O)C1=NOC(CNc2ncc(C(F)(F)F)cc2Cl)C1 (centres undefined)	-6%
Cc1cccc(C(=O)Nc2c(C#N)c(C)c(C)n2Cc2ccccc2)c1	4%
CC(=O)CCc1oc2ccccc2c1-c1ccccc1	-17%
CN(C)C1CCN(Cc2cc(COCc3ccccc3)c3cccnc3c2O)C1 (centres undefined)	5%
CN(C)CCCn1c(-c2ccccc2)nc(=S)c2c1CCCC2	5%
CC1=C(C(=O)Nc2cc(C(=O)N3CCN(c4cccc(C)c4)C(C)C3)ccc2C)SCCO1 (centres undefined)	-12%
N#Cc1c(NC(=O)c2nc3ncccn3n2)sc2c1CCCCC2	6%
Cc1ccc(NC(=O)COc2nsnc2N2CCOCC2)cc1Cl	-14%
O=c1/c(=C\c2ccc(F)cc2)sc2n1CCCN=2	-22%
Cc1cccc(N2CCN(C(=O)c3ccccn3)CC2C)c1 (centres undefined)	12%
CCn1cc(C(=O)NCC2CCCO2)c2cc(OC)c(OC)cc2c1=O (centres undefined)	3%
Cc1ccc(-n2cccn2)c(CN2CCC(CO)(CCc3ccccc3)CC2)c1	19%
O=C(O)C1CCCN1S(=O)(=O)c1ccc(Cl)cc1 (centres undefined)	6%
CCCCc1cc(=O)oc2cc(OCc3nn[nH]n3)c(Cl)cc12	-4%
CC(=O)Nc1nc(C(=O)O)cs1	5%
CCCCn1c(SCC(=O)Nc2nnc(C)s2)nc2c1c(=O)n(C)c(=O)n2C	-2%
CCOc1ccc(NC(=O)CC2C(=O)N(c3ccccc3)C(=S)N2Cc2ccccn2)cc1 (centres undefined)	1%
COc1ccc(C2=NOC(Cn3nc(C(=O)NCc4ccc(OC(F)(F)F)cc4)cc3-c3ccccc3)C2)cc1 (centres undefined)	3%
Cc1ccc(C(=O)N/C(=C\c2ccc3c(c2)OCO3)C(=O)Nc2ccc(C(=O)O)cc2)cc1	-5%
CSc1cccc(NC(=O)c2cccc(N3CCCS3(=O)=O)c2)c1	5%
O=C(c1ccc(N2CCN(C(=O)c3ccc(F)cc3F)CC2)cc1)c1cccc(F)c1	-5%
CCCCNC(=S)Nc1cccc(C(C)=O)c1	-17%
COc1ccc(S(=O)(=O)NCCc2ccccc2)c2cccnc12	-6%
CNS(=O)(=O)c1cccc(C(=O)OCc2cc(C(C)=O)ccc2OC)c1	-12%
Cc1cc(-c2ccc(C)c(S(=O)(=O)N(C)c3ccc(C)c(C)c3)c2)on1	5%
C=CCN1CCc2c(cc(O)c(O)c2Br)[C@@H](c2ccccc2)C1	-1%&-30%&-6%
Cc1ccn(C)c(=N)c1	-9%
O=C(OCCc1cc2ccccc2c(=O)o1)c1ccc(C(F)(F)F)cc1	12%
Clc1ccc(CNc2nc(N3CCOCC3)nc(N3CCOCC3)n2)cc1	1%
COc1ccc(C(CNC(=O)c2ccc(NS(=O)(=O)c3ccc(F)c(C)c3)cc2)N(C)C)cc1 (centres undefined)	-2%
CCN(CC)S(=O)(=O)c1ccc(C)c(NC(=O)COC(=O)c2ccc(C)c(S(=O)(=O)N3CCOCC3)c2)c1	20%
COc1ccc(C(=O)c2c[nH]c(C(=O)NCc3cccnc3)c2)cc1	-5%
COC(=O)c1ccccc1NC(=O)Cn1ncc2c(C)n(Cc3ccc(F)cc3)c(C)c2c1=O	16%
O=C(COC(=O)/C=C/c1cccc(C(F)(F)F)c1)NC1CCCCCC1	-9%
Nc1c(C(=O)N/N=C/c2ccc([N+](=O)[O-])cc2)sc2nnc(-c3ccccc3)c(-c3ccccc3)c12	-2%
CCn1c2ccccc2c2cc(/C=N/NC(=O)c3cc(O)cc(O)c3)ccc21	-5%
Cc1c(NC(=O)CSc2nnc(Nc3ccccc3)s2)c(=O)n(-c2ccccc2)n1C	9%
COc1ccc2c(c1)CC/C2=N\OC(=O)c1cccc(C)c1	-25%
CN(C)c1ccc(-c2nc(N(C)Cc3ccco3)c3ccccc3n2)cc1	?
Cc1nc(C(=O)NNC(=O)c2ccccc2)c(C(F)(F)F)o1	6%

Compound activity deposited in PubChem BioAssay by National Center for Advancing Translational Sciences (NCATS).
